rRNA inh HTS – inhibits bacterial ribosomal RNA function over humanized ribosomes | E. coli WT GFP vs humanized-ribosome RFP mutants, fluorescence, 24 h; stronger effect = lower value; DMSO median 0, no signal -100 | GFP signal change (wild-type ribosome), % (concentration not given with the values) | 350,000 tested, 1.6% active | AID 720706;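 active = significant combined selectivity score with lowered wild-type GFP, culture density cut under 30%, mutant RFP and density less affected; inactive = any of these conditions unmet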; also: one replicate is shown; some compounds called inactive have numbers as strong as hits
FGF22 binding – binders of recombinant human FGF22 by thermal shift; Q9HCT0; SYPRO orange fluorescence; percent of sucrose octasulfate shift, DMSO zero; calls only at 9.99 µM; 340,000 tested, 1.5% active; AID 651658;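 active = melting point raised past a set limit in the mean and every replicate; three in four hits are not shown here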
Target sequence (Q9HCT0 whole entry, looked up): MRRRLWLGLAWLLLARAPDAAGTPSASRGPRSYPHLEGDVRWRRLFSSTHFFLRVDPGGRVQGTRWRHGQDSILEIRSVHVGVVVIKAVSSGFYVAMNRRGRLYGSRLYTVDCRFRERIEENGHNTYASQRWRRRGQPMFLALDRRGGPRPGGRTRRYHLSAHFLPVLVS
Ecoli growth – inhibitors of Escherichia coli growth; OD600, 23 h; stronger effect = lower value; OD600 absorbance (no concentration beside the values); 330,000 tested, 0.21% active;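 active = OD600 absorbance below the run mean of sample wells minus 3.6 SD, in any replicate, cut at about 0.56 in these data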;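 also: stock transfer was 300 nL into about 60 µL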
Beta2AR agonist – activates human beta-2 adrenergic receptor causing internalization. P07550. Am2.2-beta2AR cells, FAP receptor internalization, flow cytometry; reference of the scale not given here. response, % (no concentration beside the values). 340,000 tested, 0.43% active. AID 504454;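 active = response above a set limit, near 3 SD of response in nonfluorescent compounds, cut at about 42% in these data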;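 also: stock transfer was 100 nL into about 11 µL; a reference agonist was the positive control; negative values mostly stem from fluorescent compounds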
Target sequence (P07550 whole entry, looked up): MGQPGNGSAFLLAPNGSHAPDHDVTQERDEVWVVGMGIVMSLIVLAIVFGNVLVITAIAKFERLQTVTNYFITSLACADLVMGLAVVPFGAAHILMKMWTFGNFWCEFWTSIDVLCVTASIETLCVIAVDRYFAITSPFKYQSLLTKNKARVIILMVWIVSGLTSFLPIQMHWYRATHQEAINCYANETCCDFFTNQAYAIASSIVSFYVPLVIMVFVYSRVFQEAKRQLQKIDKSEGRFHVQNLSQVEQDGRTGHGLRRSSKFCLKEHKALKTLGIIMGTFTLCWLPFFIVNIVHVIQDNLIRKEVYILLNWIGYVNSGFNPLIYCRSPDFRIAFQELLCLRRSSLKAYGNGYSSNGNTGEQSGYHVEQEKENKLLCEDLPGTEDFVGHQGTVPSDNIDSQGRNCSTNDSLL
ALR H2O2 inh – inhibitors of human sulfhydryl oxidase ALR; AID 485317; purified ALR, DTT oxidation, H2O2 HRP-luminol luminescence; inhibition, % (test concentration not listed); 290,000 tested, 3.8% active; P55789;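 active = mean and each replicate at 75% or more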;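 also: stock transfer was 7.5 nL into about 7.5 µL; 0% = neutral wells and 100% = wells with inactivated enzyme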
Target sequence (P55789 whole entry, looked up): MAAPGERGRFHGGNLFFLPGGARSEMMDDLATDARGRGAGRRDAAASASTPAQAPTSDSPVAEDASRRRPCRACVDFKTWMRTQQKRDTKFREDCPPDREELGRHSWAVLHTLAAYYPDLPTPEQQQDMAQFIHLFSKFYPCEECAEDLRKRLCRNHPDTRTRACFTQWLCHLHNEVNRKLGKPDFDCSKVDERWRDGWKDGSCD
UCH37 inh – human UCH37 deubiquitinating enzyme inhibition; inhibition, % (test concentration not listed); AID 588478; 330,000 tested, 0.33% active; purified proteasome/UCH37, Ub-AMC cleavage fluorescence;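 active = mean of two replicates above 20%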;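 also: 0% = compound-free wells with enzyme and 100% = wells lacking proteasome; stock transfer was 100 nL into about 20 µL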
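Schedule: 30 min plus 25 min, room temperature / Material: human UCH37 within purified proteasomes / Technique: AMC fluorescence intensity at 355/460 nm / Buffer or medium: pH 7.4 Tris-HCl (50 mM) with ovalbumin, ATP-MgCl2, DTT / Controls: wells without proteasome as full block, compound-free enzyme plus substrate as uninhibited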
HNF4A DNA FP – change in binding of human HNF4 alpha to DNA. P41235. HNF4a-FITC DNA binding, fluorescence polarization, 1 h. activity change, % at 10 µM. 360,000 tested, 0.3% active; in the data active = activity change above about 30%, passing the limit was not always enough;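 also: controls were the assay level and a saturating level of protein; the project sought stronger binding though the title names inhibitors; some compounds called inactive have numbers as strong as hits; positive values seem to mean higher polarization but the record does not say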
rRNA inh HTS OD600 – further read-out of rRNA inh HTS, marked with its call; OD600 change, %; measured here: OD600 growth;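 optical density of the mix in the first replicate; 0 = DMSO median and -100 = no signal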
rRNA inh HTS RFP – recorded beside rRNA inh HTS, whose call it bears; RFP signal change, %; measured here: RFP humanized mutant strains;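 first replicate; 0 = DMSO median and -100 = no signal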
* hit, by the source's call; i = inactive; nt = not tested or not shown; & = joins results of further samples. This is a subset, so the mix of outcomes need not match the whole.

SMILES	rRNA inh HTS	rRNA inh HTS OD600	rRNA inh HTS RFP	FGF22 binding	Ecoli growth	Beta2AR agonist	ALR H2O2 inh	UCH37 inh	HNF4A DNA FP
O=C1C2CCN(CC2)C12CC2c1ccc(C(F)(F)F)cc1 (centres undefined)	9	8	-0.6	i	0.66	2	-2	2.6	-1.1
CC1C=CCCC12C(=O)NC(=O)NC2=O (centres undefined)	12	11	0.1	i	nt	-3	nt	nt	-3.2
CCOP(=O)(C#Cc1ccccc1)C(O)c1ccc(Br)cc1 (centres undefined)	-48	-76	-9.0	i	0.63	-4	-3	3.2	-4.8
CC(C)(C)C(=O)N1Cc2cc(-c3cccc(F)c3)ccc2-n2nncc2C1	3	7	2.9	i	nt	nt	nt	nt	-0.8
CCN1CCN(CC(c2ccccc2)c2ccccc2)CC1	14	3	1.5	i	0.63	-4	-9	1.7	1.9
CCCCCCC(=O)c1c(O)n(-c2ccccc2OC)c(=O)[nH]c1=O (tested in a mixture with another compound)	-27	-32	-3.4	i	0.67	1	9	4.5	2.4
Cc1cccc(CN2CCN(c3ccc(Cl)cc3)CC2)c1	-24	-23	0.5	i	0.57	-11	29	1.5	2.4
CN1CCN(c2c(F)cc([N+](=O)[O-])c(N)c2Br)CC1	4	12	-1.1	i	0.7	-4	nt	10.0	3.6
Cc1cc(Br)ccc1N1C(=O)CC(=O)NC1=O	nt	nt	nt	nt	0.68	0	85*	-0.2	8.2
CCOC(=O)CC1c2ccccc2-n2nncc2CN1CC1CCCCC1 (centres undefined)	-44	-73	-12	i	nt	nt	nt	nt	-9.2

Of the compounds above, three contain fluorine.
SMILES	rRNA inh HTS	rRNA inh HTS OD600	rRNA inh HTS RFP	FGF22 binding	Ecoli growth	Beta2AR agonist	ALR H2O2 inh	UCH37 inh	HNF4A DNA FP
O=C1C2CCN(CC2)C12CC2c1ccc(C(F)(F)F)cc1 (centres undefined)	9	8	-0.6	i	0.66	2	-2	2.6	-1.1
CC(C)(C)C(=O)N1Cc2cc(-c3cccc(F)c3)ccc2-n2nncc2C1	3	7	2.9	i	nt	nt	nt	nt	-0.8
CN1CCN(c2c(F)cc([N+](=O)[O-])c(N)c2Br)CC1	4	12	-1.1	i	0.7	-4	nt	10.0	3.6

Further compounds.
SMILES	rRNA inh HTS	rRNA inh HTS OD600	rRNA inh HTS RFP	FGF22 binding	Ecoli growth	Beta2AR agonist	ALR H2O2 inh	UCH37 inh	HNF4A DNA FP
c1cnc(OCCN2CC2)cn1	nt	nt	nt	i	nt	-4	nt	nt	3.4
Oc1c(Br)cc(-c2ccccc2)cc1Br	-66	-78	-26	i	0.58	13	nt	1.4	1.8
CCCC(C)n1[nH]c(=O)c2c1NC(=O)CSC2c1ccccc1 (centres undefined)	7	6	-0.6	i	0.69	-1	43	3.1	3.4
COc1cc2c3cc1Oc1c(OC)c(OC)cc4c1[C@H](Cc1ccc(cc1)Oc1cc(ccc1O)C[C@H]3N(C)CC2)N(C)CC4	27	1	15	i	nt	26	12	5.4	3.3
O=C(CN1CC=C(c2ccccc2)CC1)NC(=O)NC1CCCCC1	4	16	14	nt	0.68	-2	-1	3.5	-1.8
O=C1NC(=O)C2(Cc3ccccc3N3CCCC32)C(=O)N1c1ccc(Cl)cc1 (centres undefined)	nt	nt	nt	nt	0.71	nt	0	-5.5	nt
C/C(=N\N(C)c1ccccc1)c1c(O)[nH]c(=O)[nH]c1=O	20	15	0.1	i	0.69	-4	nt	1.9	3.6
C[C@H]1C[C@@H](C)C(=O)[C@@H]([C@H](O)CC2CC(=O)NC(=O)C2)C1	nt	nt	nt	i	0.72	21	-4	8.5	0.0
CCOC(=O)C1=C(N)Oc2c(c(=O)oc3ccccc23)C12C(=O)N(C)c1ccccc12 (centres undefined)	nt	nt	nt	nt	0.73	4	-11	6.1	-4.3
CC(C)OP(=O)(O)NC(=O)c1ccccc1	17	12	1.6	i	0.68	-6	-12	2.6	-1.9
CCOP(=O)(OCC)C(O)c1cccnc1 (centres undefined)	nt	nt	nt	i	0.68	1	-10	-1.8	1.8
CCOC(=O)C1C2NC(=O)N(Cc3ccccc3)C1(C)Oc1c(OC)cccc12 (centres undefined)	nt	nt	nt	nt	0.66	9	-5	1.1	2.3
CCOC(=O)c1nc2ccccc2c(=O)n1-c1ccc(C)cc1C	nt	nt	nt	nt	0.71	15	-2	4.1	-4.3
CCN(CC)CCOC(=O)C(O)(c1ccccc1)c1ccccc1	nt	nt	nt	i	0.69	-6	-4	0.7	-3.0
C1CCC(NC2CCCCC2)CC1	-2	-2	-0.2	i	nt	-2	5	nt	-1.1
Cc1ccc(CC(=O)N2CCN(C)CC2)cc1	20	13	1.5	i	0.65	9	0	0.7	5.5
CC1(C)CCCN1CCC(C(N)=O)(c1ccccc1)c1ccccc1	12	2	3.3	i	0.71	-10	nt	2.3	0.4
Cc1onc(-c2c(Cl)cccc2Cl)c1C(=O)Nc1ccc2c(C(F)(F)F)cc(=O)oc2c1	-12	-4	-1.0	i	0.62	6	-6	-211	1.7
CN1C(=O)C(=Cc2cc([N+](=O)[O-])ccc2N2CCCCC2)C(=O)N(C)C1=O	5	-4	1.0	i	0.69	1	-2	2.8	2.1
CN1CC(C(=O)c2ccc(Cl)cc2)C(c2ccccc2F)C1 (centres undefined)	-9	0	-3.8	i	0.66	0	nt	2.9	-2.9
COC(=O)C1=C(c2ccc(OC(F)(F)F)cc2)C[C@@H]2CC[C@H]1N2C(=O)NCCOc1ccc(OC)cc1	0	-20	15	i	nt	2	-1	49*	-0.6
CCCCn1c(=O)c(C(=O)NCc2ccccc2OC)c(O)c2ccccc21	6	11	-5.0	i	0.66	3	-7	-1.6	13
O=C(CN1CCCCC1)Nc1ccc(Br)cc1C(=O)c1ccccc1Cl	nt	nt	nt	nt	0.61	2	-7	6.2	-1.1
Oc1ccc(Cl)c(Cl)c1	-4	-1	-0.1	i	0.6	-4	-18	0.3	3.3
O=P(Nc1ccccc1)(Nc1ccccc1)Oc1ccc(Cl)cc1	-58	-81	-24	i	0.7	9	nt	4.0	3.0
CCNC(=O)C1OC(n2cnc3c(N)ncnc32)C(O)C1O (centres undefined)	nt	nt	nt	nt	0.68&0.7	-5	-1	1.7	0.8
O=P(CN1CCN(c2ccccc2)CC1)(N1CCCCC1)N1CCCCC1	nt	nt	nt	nt	0.68	4	99*	4.4	0.0
O=C1C2CCN(CC2)C1(CO)CO	9	16	-6.1	i	nt	nt	nt	nt	2.2
CCc1nn(CC(=O)N2CCC3(CC2)OCCO3)c(=O)c2cccn12	4	11	-2.7	i	0.62	-6	5	1.1	-2.5
Cc1ccc(S(=O)(=O)NP(=O)(Oc2ccccc2)Oc2ccccc2)cc1	-7	-3	-5.8	i	0.65	0	3	0.6	1.4
O=C1NC(=O)N(c2ccc3c(c2)OCO3)C(=O)/C1=C/c1cccs1	nt	nt	nt	i	nt	45*	19	nt	-2.8
c1ccc(P(c2ccccn2)c2ccccn2)cc1	-6	3	0.5	i	0.69	-3	nt	0.8	-2.4
O=C1CN=C(c2ccccc2F)c2cc(Cl)ccc2N1	-9	-10	-5.0	i	0.68	-1	nt	1.7	-3.0
CCc1cccc(CC)c1NC(=S)N1CC2CC(C1)c1cccc(=O)n1C2 (centres undefined)	4	4	-6.6	i	0.64	-3	-2	1.6	2.7
Nc1c(C(=O)NCc2ccco2)c2nc3ccccc3nc2n1CCN1CCCCC1	nt	nt	nt	nt	0.65	13	1	i	5.8
CC(=O)Nc1ccc(C(=O)C(Cc2ccccc2)N(C)C)cc1 (centres undefined)	1	5	11	i	0.67	11	nt	-3.8	4.2
CN(C)CC1CSCCC1(O)c1ccc(Cl)cc1 (centres undefined)	nt	nt	nt	nt	0.76	-4	-1	2.1	5.7
CCOC(=O)c1[nH]c2ccc(OC)cc2c1C(SCC(=O)O)c1ccc(C(F)(F)F)cc1 (centres undefined)	-19	-21	-5.5	i	0.67	2	70	-109	1.0
c1ccc(N2Cc3ccccc3-n3nncc3C2)nc1	-7	-4	-1.9	i	nt	nt	nt	nt	-5.3
CCCCCN1C(=O)c2cc(OC)ccc2[C@@]2(C(=O)OCC)Cc3cc(OC)ccc3[C@@H]12	-53	-72	-17	i	nt	nt	nt	nt	1.8
COc1ccc(Cl)cc1NC1=NCC(C)S1 (centres undefined)	nt	nt	nt	nt	0.68	7	-3	2.1	0.6
COC(=O)C(O)(c1ccc(NC(=O)c2cccs2)c(C)c1)C(F)(F)F (centres undefined)	-1	3	2.6	i	0.72	4	nt	6.6	-2.4
CCCSc1nc(O)c(CC)c(=O)n1C(C)CC (centres undefined)	nt	nt	nt	nt	0.65	8	22	1.2	0.7
CC1CCCCN1CC(=O)c1ccc2cc[nH]c2c1 (centres undefined)	1	8	1.9	i	nt	7	nt	1.5	8.5
COc1ccc2c(c1)C13CCN(C)C(C2)C1CCC1(C3)OCCO1 (centres undefined)	11	5	1.8	i	nt	-3	nt	nt	0.4
COc1c(/C=C2/C(=O)NC(=O)N(C)C2=O)c(CCN(C)C(=O)c2ccccc2)cc2c1OCO2	nt	nt	nt	i	0.65	17	9	2.0	-0.4
Cc1ccc(C2=NC(C)(C)N3C2C3c2ccc([N+](=O)[O-])cc2)cc1 (centres undefined)	nt	nt	nt	nt	0.73	2	nt	1.6	0.4
O=C1NC(=O)N(Cc2ccccc2)C(=O)/C1=C/N1CCCc2ccccc21	11	2	5.2	i	0.67	0	51	2.4	1.4
COC(=O)C1=C(c2ccc(F)cc2OCc2ccccc2)C[C@@H]2CC[C@H]1N2C(=O)NCc1ccco1	3	3	-4.7	i	nt	0	-4	1.1	-0.9
COC1=C(C)C(=O)C2=C(C1=O)C(CO)N1C(C#N)C3CC4C(C1C2N1CCOC41)N3C (centres undefined)	nt	nt	nt	i	nt	-1	nt	nt	-8.3
Remaining list, next part
SMILES	rRNA inh HTS	rRNA inh HTS OD600	rRNA inh HTS RFP	FGF22 binding	Ecoli growth	Beta2AR agonist	ALR H2O2 inh	UCH37 inh	HNF4A DNA FP
Clc1cccc(C2NCCc3[nH]cnc32)c1 (centres undefined)	nt	nt	nt	nt	0.72	-4	nt	6.5	-4.1
Cc1cc(OC(=O)CCCNC(=O)OC(C)(C)C)c2c3c(c(=O)oc2c1)CCC3	nt	nt	nt	nt	0.68	-12	-10	-4.2	6.8
O=C1NC(=S)NC(=O)C1=Cc1ccc(OCc2ccccc2)cc1	1	4	0.3	i	0.68	0	nt	3.8	1.5
O=C(O)c1ccccc1N=Nc1c(O)[nH]c(=O)[nH]c1=O	17	8	-2.6	i	0.67	8	-2	7.8	-5.4
CC(C)(C)C(=O)N1Cc2cc(N3CCCCC3)ccc2-n2nncc2C1	-3	-8	5.3	i	nt	nt	nt	nt	3.6
O=c1[nH]c2ccccc2c(=O)n1-c1ccc(Cl)cc1Cl	-7	-9	4.3	i	nt	12	0	nt	-0.3
CCCCCn1c(=O)c(C(=O)Nc2nc(CC(=O)OCC)cs2)c(O)c2ccccc21	31	20	0.2	i	0.71	6	-2	1.3	4.2
O=c1c2ccccc2nc(-c2cccs2)n1-c1ccccc1	nt	nt	nt	nt	0.71	-5	-8	0.6	1.9
c1ccc(CC(NCc2ccco2)c2ccccc2)cc1 (centres undefined)	-5	-1	0.0	i	0.71	7	-2	3.0	-2.6
Cc1ccc(-c2nc3ccccc3c(=O)n2-c2cc(C)ccn2)cc1	nt	nt	nt	nt	0.73	-6	nt	3.2	0.7
CC1(CCCc2ccc(N(CCCl)CCCl)cc2)NC(=O)NC1=O (centres undefined)	4	13	1.0	i	nt	nt	nt	nt	-3.6

High-throughput results as filed in PubChem BioAssay.
